Screens deposited in PubChem by National Center for Advancing Translational Sciences (NCATS).
SARS PLP yeast: blocks SARS-CoV papain-like protease in a yeast assay; S. cerevisiae expressing SARS-CoV PLpro, growth rescue; control for the full effect not named in the record; Potency, µM (doses to about 32.9 µM), without a hit: at the highest dose activity, positive = growth rescue; hit rate 0.19% among 330,000; AID 485353; active means well fitted rising curve with a large enough effect; inconclusive means small, poorly fitted or top-dose-only effect; inactive means no such curve, though single readings can be large or run the other way; note: 0% is about no effect; nearly all actives have a fitted effect of over 55% in size; growth read by luminescence after 48 h
MARV entry inh: blocks Marburg virus binding to or entry into cells | Marburg virus pseudotyped entry inhibition, cell reporter; control for the full effect not named in the record; about a third of the inactives were read at about 46 µM | Potency, µM (titrated, usually from 37.8 µM), for inactives: at the top dose activity change, negative = inhibition, usual class: inhibitors | hit rate 1.8% among 300,000; active = well fitted inhibition curve with a large enough effect; inconclusive = small, poorly fitted or top-dose-only effect, or effect the other way; inactive = flat fitted curve, though single readings scatter; tested in HEK293 cells; about a fifth of its hits are not listed in these tables; note: % is set by controls: 0 for no effect and ±100 for the full control effect; luciferase read-out
Cruzain noTriton: cruzain (T. cruzi) inhibition without detergent; P25779; hit rate 2.3% among 200,000; Potency, µM, for inactives: max response, negative = inhibition, actives largely listed as inhibitors; purified cruzain, Z-FR-AMC fluorescence, no detergent;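 note: plate controls were enzyme without inhibitor for no effect and buffer without enzyme for full effect; nearly all actives have a fitted effect of over 40% in size; top concentration of the series not given in the record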
Target sequence (P25779 123-467 limits assumed): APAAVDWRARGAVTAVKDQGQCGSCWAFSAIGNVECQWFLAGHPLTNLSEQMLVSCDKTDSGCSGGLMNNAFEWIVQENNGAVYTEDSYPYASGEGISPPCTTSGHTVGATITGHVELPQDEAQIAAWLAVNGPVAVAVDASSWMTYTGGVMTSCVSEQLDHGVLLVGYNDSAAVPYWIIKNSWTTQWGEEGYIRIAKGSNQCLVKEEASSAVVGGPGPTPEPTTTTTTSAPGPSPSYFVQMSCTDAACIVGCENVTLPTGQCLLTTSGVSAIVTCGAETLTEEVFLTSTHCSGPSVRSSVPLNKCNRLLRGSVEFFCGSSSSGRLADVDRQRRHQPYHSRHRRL
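Detergent-free condition (0.00005% Triton X-100) in acetate buffer pH 5.5 with DTT. 1.5 nM enzyme and compound were pre-mixed 15 min, then 2 uM Z-FR-AMC substrate added; reaction progress from fluorescence change between first and third reads (60 s).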
Cruzain inh Det: inhibitors of Trypanosoma cruzi cruzain with detergent; AID 1478; purified cruzain, Z-FR-AMC fluorescence, 0.01% Triton; Potency, µM, for inactives: max response, negative = inhibition, most hits filed as inhibitors; hit rate 0.43% among 200,000; P25779;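 note: plate controls were neutral wells for no effect and buffer without enzyme for full effect; nearly all actives have a fitted effect of over 40% in size; top concentration of the series not given in the record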
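Detergent-containing run (0.01% Triton X-100) in acetate buffer pH 5.5 with 5 mM DTT: enzyme at 1.5 nM final, 15 min compound preincubation at room temperature, then 2 uM Z-FR-AMC substrate. Activity taken as 60 s fluorescence increase at 360/450 nm.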
NS1 inh: blocks influenza NS1 protein function; S. cerevisiae slowed by influenza A NS1, growth recovery by OD600; Potency, µM (highest dose often 46.1 µM), inactives show at the top dose activity, positive = more growth; hit rate 0.4% among 270,000; AID 2326; active means well fitted rising curve with a large enough effect; inconclusive means small, poorly fitted or top-dose-only effect; inactive means no such curve, though single readings can be large or run the other way; note: nearly all actives have a fitted effect of over 50% in size
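A cell-based growth assay was used: compounds that relieve NS1-induced slow growth of budding yeast raise OD600. Assay medium was yeast nitrogen base with ammonium sulphate and -URA supplement, pH 6.0, with 2% galactose.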
RE007 growth inh: less growth of the S. pombe RE007 Vpr strain; S. pombe RE007 Vpr strain, BacTiter-Glo ATP luminescence, 24 h; control for the full effect not named in the record; Potency, µM (titrated, usually from 92.2 µM), for the others: top-dose activity change, negative = less growth; hit rate 0.21% among 360,000; AID 651644; active = well fitted falling curve with a large enough effect; inconclusive = small, poorly fitted or top-dose-only effect; inactive = no such curve, though single readings can be large or run the other way;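 note: % is set by controls: 0 for no effect and ±100 for the full control effect; nearly all actives have a fitted effect of over 50% in size; the assay follows cell death caused by Vpr and the record does not say whether a fall means rescue or toxicity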
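Fission yeast RE007 carrying one integrated HIV-1 vpr copy, seeded at OD 0.01 in PMG+AL medium with 23 nL pinned compound. Grown 24 h at 30 degrees; viability read by BacTiter-Glo luminescence after 5 min.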
2A StopGo: FMDV 2A StopGo reporter, luciferase signal; Potency, µM (titrated, usually from 57.9 µM), for the others: at the top dose signal change, negative = less light; AID 1159524; hit rate 1.2% among 410,000; human cells with a luciferase reporter of 2A StopGo recoding; control for the full effect not named in the record; active = well fitted falling curve with a large enough effect; inconclusive = small, poorly fitted or top-dose-only effect; inactive = no such curve, though single readings can be large or run the other way; tested in HEK293T cells; note: % is set by controls: 0 for no effect and ±100 for the full control effect; nearly all actives have a fitted effect of over 45% in size; luciferase light after 4 h
Lassa entry inh: blocks Lassa virus binding to or entry into cells; hit rate 1.2% among 300,000; Lassa virus pseudotype entry inhibition, cell reporter; control for the full effect not named in the record; Potency, µM (doses to about 37.9 µM), inactives show at the top dose activity change, negative = inhibition, actives largely listed as inhibitors; active means well fitted inhibition curve with a large enough effect; inconclusive means small, poorly fitted or top-dose-only effect, or effect the other way; inactive means flat fitted curve, though single readings scatter; tested in HEK293 cells; note: % is set by controls: 0 for no effect and ±100 for the full control effect; nearly all actives have a fitted effect of over 50% in size; luciferase read-out
* = called active by the depositor; ? = inconclusive; . = not tested or not shown; & = joins results of further samples; [ ] = another dose, or the depositor's remark. Unless noted, calls come from the whole dose curve; as a rule, active = well fitted curve in the direction sought with a large enough effect; inconclusive = small, poorly fitted or top-dose-only effect, or another doubt; inactive = no such curve, though single readings can be large; an effect the other way counts as inactive or inconclusive. Potency is the fitted concentration of half-maximal effect. Rows were taken by chance; overall some 4.7% were active at least once.

SMILES	SARS PLP yeast	MARV entry inh	Cruzain noTriton	Cruzain inh Det	NS1 inh	RE007 growth inh	2A StopGo	Lassa entry inh
Cc1ccc2nc(SCCC#N)nc(C)c2c1	-6%	?	-7%	0.7%	-5%	-10%	-1%	1%
COc1cc2c(cc1OC)C(C)N(C(=O)Cn1ncc3c1-c1cc(C)ccc1OC3)CC2 (stereo not given)	-1%	-1%	?	-2.7%	4%	26%	?	.
Cc1cc(C)c2c(=O)nc(SCc3ccccc3C)n(C3CC3)c2n1	.	.	-5%	3.9%	.	.	0%	-7%[46.1 µM]
Cc1ccc(SCc2cc(=O)[nH]c(N3CCOCC3)n2)cc1	-5%	-25%	2%	0.8%	6%	3%	-6%	-16%
O=C(CN1CCN(c2ccccc2)CC1)N1N=CCC1c1ccccc1 (stereo not given)	7%	-2%	-2%	2.1%	-8%	2%	-4%	5%
COCC1CCCCN1Cc1cn[nH]c1-c1ccc(OC)cc1OC (stereo not given)	0%	?	.	.	1%	-4%	-2%	3%[46.1 µM]
CCCCNC(=S)N(C)/N=C/c1ccc(F)cc1	-48%	?	5%	-11%	-30%	?	-15%	3%
CCCCCn1c(SCCCC)nc2c1c(=O)[nH]c(=O)n2C	0%	?	-7%	-1.4%	-11%	16%	-27%	?
COc1cccc(/C=C/c2nc(C#N)c(NC3CCCCC3)o2)c1	.	22%[46.1 µM]	4%	-4.6%	.	.	23%	11%[46.1 µM]
Cc1ccc(/C=N/N2CCN(Cc3ccccc3)CC2)s1	14%	14%	5%	1.5%	?	-18%	43%[activator]	8%
COc1c(C)cccc1C(=O)Nc1ccc(CN2CCOCC2)cc1	2%	?	-13%	3.7%	-8%	0%	.	11%
Cc1cc(C)c2c(=O)cc(C(=O)Nc3sc4c(c3C#N)CCCC4)oc2c1	.	2%[46.1 µM]	-5%	-2.6%	.	.	?	19%[46.1 µM]
COc1ccc(C)cc1NC(=O)CSc1nnnn1Cc1ccccc1	-3%	3%	-18%	-2.9%	-8%	9%	-21%	-4%
COc1ccc(Nc2c(C)cccc2C)cc1	-2%	-3%	-4%	-6.9%	4%	13%	-2%	13%
N=Nc1c(O)n(CC(=O)Nc2ccccc2)c2ccccc12	8%	.	.	.	2.5µM*	-4%	3%	.
O=C1Nc2ccccc2/C1=C\C(=O)c1ccccc1	-11%	.	.	.	-99%	?	32µM*	.
COc1cc2nc(-c3ccc(Br)o3)oc(=O)c2cc1OC	2%	22%	?	-1.8%	-11%	6%	?	18%
c1cnc(NC2CCCCCC2)nc1	3%	-3%&-3%	-14%	-0.6%	-4%	-7%	.	15%
CC1(C)CC(NC(=O)CCc2ccccc2)CC(C)(C)N1	1%	8%	-3%	2.0%	0%	-5%	0%	2%
COC(=O)C1C(O)=C(C=Nc2ccc(N)cc2)C(=O)CC1(C)C (stereo not given)	-10%	?	-4%	-2.4%	-2%	18%	19%	-12%
CC1(c2ccccc2)CC(c2ccccc2)=C(C#N)C(=O)N1 (stereo not given)	.	4%	.	.	.	3%	-20%	12%[46.1 µM]
C/C(CC(=O)NC1CCCC1)=N\NC(=O)c1ccc([N+](=O)[O-])c(Cl)c1	-3%	?	-5%	0.0%	-4%	-11%	-22%	8%
Cc1cnc(C(=O)Oc2ccc(-c3ccccc3)cc2)cn1	-4%	-2%[46.1 µM]	.	.	6%	5%	22%	-8%[46.1 µM]
CN(C(=O)c1ccc2c(c1)OCO2)C1CCS(=O)(=O)C1 (stereo not given)	-2%	9%	.	.	.	-10%	-13%	11%
O=C(c1ccc(S(=O)(=O)N2CCOCC2)cc1)N1CCN(c2ccccn2)CC1	0%	.	.	.	-4%	16%	-10%	.
C=CCCC(=O)N1CCC(CCC(=O)NC2CC2)CC1	5%	.	.	.	9%	-6%	-2%	.
COc1ccc(S(=O)(=O)c2cn(CC(=O)Nc3ccccc3)c3ccc(Cl)cc3c2=O)cc1	.	-8%[46.1 µM]	-6%	-0.3%	.	.	26%	0%[46.1 µM]
O=C(C1CC(=O)N(c2ccc3c(c2)OCCO3)C1)N1CCN(c2ccccc2O)CC1 (stereo not given)	-10%	.	.	.	3%	10%	?	.
COc1cc(C(=O)NC(=S)Nc2ccc([N+](=O)[O-])cc2)cc(OC)c1OC	0%	-15%	13%	-0.2%	13%	-15%	-26%	0%
CCCC(=O)Oc1ccc(N(C(=O)CCC)S(=O)(=O)c2cccc([N+](=O)[O-])c2)cc1	-18%	-6%	8%	-4.8%	-16%	-13%	-12%	0%
CCOc1cc(C(=O)NCCN2C(=O)S/C(=C\c3cccnc3)C2=O)cc(OCC)c1OCC	-1%	-12%	?	-14%	?	-27%	-10%	6%
O=C(N/N=C/c1c[nH]c2ccc(Br)cc12)c1ccncc1	6%	?	4%	-1.8%	12%	3%	0%	11%
CC1CC(C)(C)NC2(CCCC2)N1 (stereo not given)	.	-3%	.	.	.	6%	-11%	-1%
Cc1ccc2c(c1)C(=O)C(=O)N2CC(=O)OC(C)C	4%	3%	5%	0.9%	-7%	2%	-12%	-9%
O=C(CCCCCn1c(=S)[nH]c2cc3c(cc2c1=O)OCO3)N1CCN(c2ccc(F)cc2)CC1	-1%	?	.	.	10%	-7%	?	-9%[46.1 µM]
CCOC(=O)Cn1ccc(NC(=O)c2ccc(F)cc2)n1	0%	.	.	.	1%	-12%	-8%	.
COc1ccc(OCC(=O)NC(=S)Nc2ccc3c4c(cccc24)CC3)cc1	5%	-22%[46.1 µM]	?	-12%	7%	-18%	-13%	2%
CC(C)CN(C(=O)COC(=O)c1ccc(Cl)nc1)c1c(N)n(Cc2ccccc2)c(=O)[nH]c1=O	5%	-7%	.	.	.	-2%	1%	-3%
COc1ccc(CNc2nc(-c3cccnc3)nn2C(=O)CC(C)C)cc1	-2%	-7%[46.1 µM]	.	.	.	-15%	-11%	0%
O=C(c1cccs1)N1N=C(c2ccccc2)CC1c1ccccc1 (stereo not given)	-9%	?	-26%	-1.7%	13%	11%	.	?
O=C(Nc1ccccc1F)C(=O)Nc1cccc2ccccc12	6%	?	.	.	5%	-19%	68%[activator]	?
Cn1c(=O)oc2cc(S(=O)(=O)NCCC(=O)Nc3ccc4c(c3)OCCO4)ccc21	4%	-6%	3%	3.3%	4%	2%	0%	26%
CCOC(=O)c1c(NC(=O)CSc2nnc(CNc3ccc(Cl)cc3)o2)sc(C)c1C	?	?	-1%	-6.1%	14%	-11%	?	1%
COc1ccccc1-c1coc2c(CN3CCC(C)CC3)c(O)ccc2c1=O	1%	28%[46.1 µM]	.	.	16%	-13%	-7%	24%[46.1 µM]
Cc1ccc(S(=O)(=O)N2CCOCC2)cc1C(=O)OCC(=O)NCc1ccccc1	.	25%	.	.	.	-1%	-10%	3%
COc1ccc(C2=NOC(C(=O)Nc3cc(C)on3)C2)cc1OC (stereo not given)	1%	.	.	.	-3%	15%	-6%	.
CCN(Cc1ccccc1)C(c1ccccn1)c1nnnn1C1CCCCC1 (stereo not given)	-2%	-29%	1%	-4.8%	6%	13%	0%	-13%
CC1CN(C(=O)Cn2cc(S(=O)(=O)CC(=O)N3CCOCC3)c3ccccc32)CC(C)O1 (stereo not given)	-3%	.	.	.	4%	4%	-1%	.
CCCN(CCC)C(=O)C1CCCN(c2ncnc3onc(-c4ccc(F)cc4)c23)C1 (stereo not given)	.	.	-10%	-0.2%	.	.	?	27%[46.1 µM]
Cc1ccc2c(c1)CCCN2C(=O)c1cc(C)c(C)s1	-12%	4%	.	.	.	8%	-20%	-20%
COc1cc2c(O)c3c(c(-c4ccc5c(c4)OCO5)c2cc1OC)C(=O)OC3	18%	2.3µM*	11%	-7.0%	-1%	16%	.	3.7µM*
CN(C)S(=O)(=O)Nc1ccc(Br)cc1F	-3%	22%	5%	3.9%	8%	-3%	18%	24%
Cc1cccc(C)c1NC(=O)C(=O)c1cn(C)c2ccccc12	1%	?	.	.	.	-18%	5%	-4%[46.1 µM]
COc1ccc(CNC(=O)c2c[nH]c3ccccc3c2=O)cc1	0%	-1%	.	.	-5%	4%	61%[activator]	?
COc1ccc(NC(=O)c2cc([N+](=O)[O-])ccc2N2CCCCC2)cc1	4%	-23%[46.1 µM]	.	.	3%	-9%	-2%	-2%[46.1 µM]
O=c1cc(CN2CCc3ccccc32)c2ccc(O)cc2o1	-19%	?	.	.	.	15%	-13%	-16%[46.1 µM]
Cc1ccc(C)c(NC(=O)N2CCC(N3CCN(Cc4ccc(F)cc4)C(=O)C3=O)CC2)c1	.	.	10%	5.3%	.	.	-4%	8%[46.1 µM]
COc1ccc(-c2cc3c(=O)n(CC(=O)NC4CCN(Cc5ccccc5)CC4)ncn3n2)cc1	-3%	18%&18%	-2%	7.0%	-3%	-3%	-24%	10%
CCCCCCn1cc(C(=O)O)c(=O)c2cc(F)c(N3CCN(C)CC3)cc21	-2%	0%	.	.	1%	-1%	-16%	7%
O=C1C=CC(=O)N1c1ccc(OC(F)F)cc1	-135%	?	-23%	-1.8%	-30%	2.8µM*	-19%	-8%

Next compounds follow:
SMILES	SARS PLP yeast	MARV entry inh	Cruzain noTriton	Cruzain inh Det	NS1 inh	RE007 growth inh	2A StopGo	Lassa entry inh
COc1ccc(CCNC(=O)C/C(C)=N/NC(=O)c2ccc([N+](=O)[O-])cc2Cl)cc1OC	-4%	8%	.	.	10%	-11%	3%	3%
CC(C)(C)c1ccc(S(=O)(=O)N2CCC(c3nc4ccc(Cl)cc4[nH]3)CC2)cc1	-13%	?	-9%	-4.5%	-2%	6%	.	?
CC(NC(=O)c1ccc(F)cc1)c1ccccc1 (stereo not given)	18%	1%	-2%	-0.7%	-6%	33%	-9%	11%
CCCCc1cc(=O)oc2cc(C)cc(OC(C)C(=O)NC(Cc3c[nH]c4ccc(O)cc34)C(=O)O)c12 (stereo not given)	2%	.	.	.	?	3%	-8%	.
CCCn1c(=S)[nH]c2cc(C(=O)N3CCN(c4ccccc4OC)CC3)ccc2c1=O	-28%	-14%	5%	-7.4%	-34%	6%	10%	7%
